PV pol inh: poliovirus RNA polymerase inhibition. poliovirus polymerase elongation, fluorescence polarization; active compounds read low. % elongation, % (compound at 16.7 µg/mL). 150,000 tested, 0.66% active. AID 588519; in the data active = % elongation below about 90%; also: some results filed as inactive read as strong as hits
Target sequence (P03300 1749-2209 limits assumed): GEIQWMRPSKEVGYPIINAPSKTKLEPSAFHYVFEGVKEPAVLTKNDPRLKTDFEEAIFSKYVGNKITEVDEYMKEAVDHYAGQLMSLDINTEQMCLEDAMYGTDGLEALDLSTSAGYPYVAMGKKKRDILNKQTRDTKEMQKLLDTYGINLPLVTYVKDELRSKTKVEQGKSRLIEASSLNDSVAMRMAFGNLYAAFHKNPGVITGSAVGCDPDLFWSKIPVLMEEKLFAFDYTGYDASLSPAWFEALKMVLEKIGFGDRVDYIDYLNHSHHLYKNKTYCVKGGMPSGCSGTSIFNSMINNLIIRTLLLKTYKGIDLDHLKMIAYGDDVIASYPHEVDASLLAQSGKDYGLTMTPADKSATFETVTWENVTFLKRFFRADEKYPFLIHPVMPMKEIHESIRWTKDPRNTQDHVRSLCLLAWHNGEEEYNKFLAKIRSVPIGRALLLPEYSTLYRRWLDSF
PV pol inh intensity: recorded beside PV pol inh, whose call it bears; % elongation; measured here: total intensity read-out; formula for this scale not given here;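 total fluorescence in place of polarization; lower means less elongation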
Active calls of the source: *. A portion of the library. The share of hits here may be higher or lower than overall.

no.	Molecule	PV pol inh	PV pol inh intensity
1	Cc1cccc(-n2c(=O)c3c(c4cc(C)ccc4n3C)n(Cc3ccccc3F)c2=O)c1	116	108
2	COc1ccc(-c2nn3c(=O)cc(CN4CCN(C(=O)Nc5cc(C)ccc5C)CC4)nc3s2)cc1	105	99
3	CCOc1ccccc1NC(=O)CCc1nc(-c2cccc(C)c2)no1	101	106
4	Cc1ccc(NC(=O)C2CCN(c3nc4ccccc4nc3C(F)(F)F)CC2)cc1C	108	112
5	CN(C)c1ccc(C(CNC(=O)c2ccccc2)N2CCc3ccccc32)cc1 (stereo not given)	99	104
6	COc1ccc(CNC(=O)CCc2c(C)c3cc4c(C)c(C)oc4cc3oc2=O)cc1	106	101
7	O=C(Cn1c(=O)n(Cc2ccc(F)cc2)c(=O)c2sc3ccccc3c21)Nc1ccc(F)cc1F	106	110
8	O=C(/C=C/c1ccccc1)N1CCN(Cc2cc(=O)n3nc(-c4ccccc4)sc3n2)CC1	110	107
9	CCc1ccccc1NC(=O)c1nnn(CC(=O)Nc2c(C)cc(C)cc2C)c1N	110	114
10	Cc1ccc(OCC(=O)Nc2ccc3nc(SCC(=O)N4CCCC4)sc3c2)cc1C	111	115
11	Cc1cccc(NC(=O)CSc2nc3c([nH]c4ccccc43)c(=O)n2-c2ccc(F)cc2)c1C	108	114
12	CC(C)c1ccc(NS(=O)(=O)c2ccc3[nH]cc(C(=O)NCCc4ccccc4)c(=O)c3c2)cc1	109	104
13	Cc1ccc2c(c1)c1c(c(=O)n(-c3ccccc3C)c(=O)n1CC(=O)NCC1CCCO1)n2C (stereo not given)	108	103
14	O=S1(=O)N=C(Nc2cccc(C(F)(F)F)c2)c2ccccc21	102	102
15	Cc1oc(-c2ccccc2F)nc1CN1CCC(C(=O)NCCc2ccc(Cl)cc2)CC1	104	110
16	COc1cc(OC)cc(-c2cc3nc(C)c(CCC(=O)NCCc4cccc(C)c4)c(C)n3n2)c1	109	111
17	Cc1nn(-c2ccccc2)c2c1N(CC(=O)N1CCN(c3cccc(Cl)c3)CC1)C(=O)CS2	110	112
18	Cc1onc(-c2ccccc2Cl)c1C(=O)Oc1ccc(Cl)cc1Cl	106	103
19	O=C(Cn1c(=O)c2cccn2c2ccccc21)NCCc1ccccc1	106	114
20	Cc1cccc(NC(=O)C2CCN(c3cnccn3)CC2)c1	102	105

Of the compounds above, three contain a Cl atom.
no.	Molecule	PV pol inh	PV pol inh intensity
15	Cc1oc(-c2ccccc2F)nc1CN1CCC(C(=O)NCCc2ccc(Cl)cc2)CC1	104	110
17	Cc1nn(-c2ccccc2)c2c1N(CC(=O)N1CCN(c3cccc(Cl)c3)CC1)C(=O)CS2	110	112
18	Cc1onc(-c2ccccc2Cl)c1C(=O)Oc1ccc(Cl)cc1Cl	106	103

Next compounds follow:
no.	Molecule	PV pol inh	PV pol inh intensity
21	CSc1ccc(CNC(=O)Cn2c(-c3cccs3)cc3cc(F)ccc32)cc1	113	120
22	COC(=O)c1nnn(CC(=O)NC(=O)Nc2cccc(C)c2C)c1C(=O)OC	108	112
23	CC(=O)c1cccc(NC(=O)c2oc3c(c2C)-c2nn(Cc4ccc(Cl)cc4)cc2CC3)c1	93	96
24	Cc1ccccc1CNC(=O)c1ccc2nc(SCc3ccc(F)cc3)n(C)c2c1	108	108
25	Cc1ccccc1CN1C(=O)c2ccccc2S(=O)(=O)c2ccc(C(=O)OCC3CCCO3)cc21 (stereo not given)	104	109
26	Cc1cccc(N2C(=O)CCSC23C(=O)N(Cc2ccc(F)cc2)c2ccccc23)c1 (stereo not given)	101	97
27	Cc1ccc(-n2nc3c(=O)n(C(C)C(=O)NCc4ccco4)nc(C)c3c2C)cc1 (stereo not given)	112	111
28	CCOC(=O)c1c(C)oc2nc(C)nc(NCCCN3CCN(c4cc(Cl)ccc4C)CC3)c12	104	111
29	Cc1ccc(CCNS(=O)(=O)c2ccc3c(c2)C(C(C)C)C(=O)N3)cc1 (stereo not given)	112	108
30	CCOc1ccc(C(=O)Nc2cccc(NC(=O)c3ccc(Cl)cc3Cl)c2)cc1	98	82
31	Cn1c(=O)n(C)c2cc(CNCCc3ccccc3F)ccc21	103	105
32	COc1ccc(F)cc1S(=O)(=O)NCC(c1ccco1)S(=O)(=O)c1ccc(F)cc1 (stereo not given)	105	107
33	CC(=O)c1ccc(NC(=O)Nc2sc3nc4n(c(=O)c3c2C)CCC(C)CC4)cc1 (stereo not given)	108	111
34	COc1ccc(OC)c(CNC(=O)CN2CC(C)Sc3ccccc32)c1 (stereo not given)	111	114
35	COCCCNC(=O)c1cnn(-c2ccc(F)cc2F)c1C1CCNCC1	104	93
36	CCOC(=O)c1c(C)oc2nc(C)nc(NC(C)c3ccccc3)c12 (stereo not given)	107	111
37	CC(C)Cn1c(=O)c2ccccc2n2c(-c3cccc(Cl)c3)nnc12	108	106
38	Cc1c2cnn(-c3ccccc3)c(=O)c2c(C)n1CC(=O)N1CCN(c2ccc(F)cc2)CC1	107	108
39	CCN(Cc1ccccc1)C(=O)CN(c1ccc(OC)cc1)S(=O)(=O)c1c(C)nn(C)c1C	110	110
40	CC1CCN(S(=O)(=O)c2ccc3nc(Nc4cccc(C(F)(F)F)c4)ccc3c2)CC1	105	114
41	CCCNC(=O)Cn1nc(-c2ccc(OC)cc2)c2cnc3ccc(F)cc3c21	107	113
42	Cc1ccc(-c2c(C(=O)Nc3ccc(F)c(F)c3)oc(=O)c3ccccc23)cc1	106	107
43	COc1ccc(-n2c(CCC(=O)O)ccc2-c2ccccc2)cc1	101	103
44	O=c1cc(-c2ccccc2)n2c(SCc3ccccc3Cl)nnc2[nH]1	107	103
45	COCCn1c(SCC(=O)c2ccc(C)cc2C)nc2cc(C(=O)NC3CCCC3)ccc2c1=O	130	145
46	Cc1ccc(NC(=O)C2CCCN(c3ncnc4onc(C)c34)C2)c(Cl)c1 (stereo not given)	108	104
47	CCOc1ccccc1NC(=O)COc1cccc2c(=O)n(CCOC)ccc12	105	110
48	CN1CCN(CCCNC(=O)c2cnn(-c3ccc(F)cc3)c2-n2cccc2)CC1	110	116
49	Cc1cc(C)cc(OCC(=O)NCCc2nc3ccccc3[nH]2)c1	99	107
50	COc1cc(OC)c(NC(=O)NCc2ccc3c(c2)CCN3C(C)=O)cc1Cl	111	99
51	Cc1nc2c(c(C)nn2-c2ccccc2)c(C)c1CCC(=O)NCc1ccccc1	111	112
52	CNC(=O)C1CCC(Cn2c(=O)c3sccc3n(CC(=O)Nc3ccc(C)c(F)c3)c2=O)CC1 (stereo not given)	104	105
53	O=C(c1cc(-c2cccc(Cl)c2)on1)N1CCCCC1	102	102
54	Cc1ccc(S(=O)(=O)c2nc(-c3ccco3)oc2SCC(=O)c2ccc(Cl)cc2)cc1	105	109
55	Cc1ccc(-n2ncc3c(NCCO)ncnc32)cc1Cl	104	105
56	CCn1cc2nc(SCc3cc(C)ccc3C)n(Cc3ccc(OC)cc3)c(=O)c2n1	101	105
57	Cc1ccc(CNC(=O)C2CCN(S(=O)(=O)Cc3ccccc3)CC2)cc1	110	108
58	O=C(CSc1nnc(CNC(=O)c2ccccc2)n1-c1cccc(Cl)c1)Nc1ccccc1F	112	105
59	CCc1ccc(NC(=O)Cn2c(=O)n(CCC(=O)N3CCc4ccccc4C3)c(=O)c3ccccc32)cc1	107	109
60	COc1cccc(-n2c(-c3cccc(F)c3)nc3c(cnn3-c3ccc(C)cc3)c2=O)c1	107	107
61	Cc1ccccc1C(=O)Nc1sc2c(c1C(=O)O)CCC(C(C)(C)C)C2 (stereo not given)	105	104
62	Cc1ccc(C)c(CN2C(=O)c3ccccc3S(=O)(=O)c3ccc(C(=O)NCCc4ccc(Cl)cc4)cc32)c1	106	108
63	O=C(Nc1ccc(OC(F)(F)F)cc1)c1cc2ccccn2n1	99	102
64	CCCCc1nn2c(=O)cc(COC(=O)c3cccc(NC(=O)c4cccs4)c3)nc2s1	101	108
65	CCC(CC)C(=O)Nc1ccc(OCc2cc(=O)n3ccc(C)cc3n2)cc1	112	104
66	COc1cccc(Cn2c(CNC(=O)CCc3ccccc3)nc3cccnc32)c1	111	124
67	Cc1cc(C)c2c(=O)cc(C(=O)NCc3ccc(S(N)(=O)=O)cc3)oc2c1	119	122
68	Cn1c(=O)c2c(-c3ccccc3Br)n(C(C)(C)C)cc2n(C)c1=O	99	92
69	Cc1ccc(C)c(Cn2c(C(=O)O)c(CNCc3cccs3)c3ccccc32)c1	107	112
70	Cc1ccc(N(C)S(=O)(=O)c2nnc(NC(=O)c3ccco3)s2)cc1	104	110
71	CCc1cccc(NC(=O)CSC2=Nc3ccccc3N=C(c3ccc(F)cc3)C2)c1	102	98
72	Cc1ccc2c(c1)N(C(=O)NCc1ccccc1)CCO2	108	109
73	Cc1cccc(OCC(=O)Nc2nnc(S(=O)(=O)N3CCCCCC3)s2)c1	102	107
74	Cc1cccc(N2CCN(C(=O)c3ccc4nc(N5CCC(C)CC5)sc4c3)CC2)c1C	104	104
75	COc1ccc(OC)c(S(=O)(=O)NCC(c2ccc(N(C)C)cc2)N2CCOCC2)c1 (stereo not given)	105	112
76	Cc1c(NC(=O)C(C)(C)C)cccc1-c1nc2ccccc2s1	113	110
77	Cc1ccccc1-c1nc(CS(=O)(=O)CC(=O)NCCc2ccccc2)c(C)o1	99	99
78	CC(C)c1ccc(CNc2nc(-c3ccco3)nn2C(=O)c2ccc([N+](=O)[O-])cc2)cc1	99	95
79	COC(=O)c1ccc(NC(=O)c2cc(S(=O)(=O)N3CCc4ccccc43)cn2C)cc1	112	110
80	Cc1sc(C2C(C#N)=C(N)N(c3cccc(Cl)c3)C3=C2C(=O)CCC3)cc1CN1CCOCC1 (stereo not given)	111	120

Other compounds:
no.	Molecule	PV pol inh	PV pol inh intensity
81	CC(=O)Nc1ccc(NC(=O)Cn2cc3c(n2)CCCCC3)cc1	109	105
82	CCc1ccc(-n2nc(CO)c(C(=O)NC(C)c3ccc(Cl)cc3)n2)cc1 (stereo not given)	113	108
83	COc1ccc2c(c1)c(=O)c(C(=O)c1ccc(C)cc1)cn2Cc1ccccc1F	103	107
84	Fc1ccc(-c2nc(Nc3cccc(Cl)c3)nc3c2COc2ccccc2-3)cc1	107	103
85	CCn1c(=O)c2cc(C(=O)NCc3cc(OC)ccc3OC)sc2c2ccccc21	108	107
86	COc1ccc(NC(=O)C2CCN(c3nc4ccccc4[nH]3)CC2)cc1OC	101	110
87	COc1ccc(-n2cc(C(=O)Oc3cc(C)cc(C)c3)c3ccccc3c2=O)cc1	112	107
88	CCOC(=O)Cn1c(=O)oc2cc(S(=O)(=O)NC(C)c3ccccc3)ccc21 (stereo not given)	107	108
89	Cc1ccc(S(=O)(=O)NCCc2nnc3ccc(SCC(=O)Nc4c(C)cc(C)cc4C)nn23)cc1	110	104
90	COc1ccc(OC)c(NC(=O)Cn2cc(S(=O)(=O)c3ccccc3)c(=O)c3cc(C)ccc32)c1	111	111
91	O=C(Cn1cc(SCc2cccc(C(F)(F)F)c2)c2ccccc21)N1CCCCCC1	113	108
92	CCOC(=O)c1cc(-c2ccc(C)cc2)n(CCC(=O)Nc2nc3c(C)cccc3s2)c1C	101	109
93	O=C(Nc1ccc(Cl)cc1Cl)c1cc(S(=O)(=O)N2CCC3(CC2)OCCO3)ccc1F	106	107
94	Fc1cccc(Cl)c1CNCCSc1nnnn1-c1ccccc1	116	131
95	O=C(c1ccco1)N(Cc1cccs1)c1ccc(F)cc1	105	99
96	CCn1c(=O)cc(SCC(=O)NCCc2cccc(C)c2)c2ccccc21	106	103
97	CCN(CC)S(=O)(=O)c1ccc2c(c1)c(=O)c(C(=O)N1CCN(c3cc(Cl)ccc3C)CC1)cn2C	107	109
98	COC(=O)c1ccc(Nc2nnc(-c3ccc(C)c(S(=O)(=O)N4CCN(C)CC4)c3)c3ccccc23)cc1	107	112
99	COc1cccc(-c2cc(C(F)(F)F)nc(NCCc3ccccc3)n2)c1	104	107
100	CCOc1ccc(S(=O)(=O)N2CCN(c3ccc(Cl)c(Cl)c3)CC2)c2ccccc12	102	101

In the list so far, 6 contain a CF3 group.
no.	Molecule	PV pol inh	PV pol inh intensity
4	Cc1ccc(NC(=O)C2CCN(c3nc4ccccc4nc3C(F)(F)F)CC2)cc1C	108	112
14	O=S1(=O)N=C(Nc2cccc(C(F)(F)F)c2)c2ccccc21	102	102
40	CC1CCN(S(=O)(=O)c2ccc3nc(Nc4cccc(C(F)(F)F)c4)ccc3c2)CC1	105	114
63	O=C(Nc1ccc(OC(F)(F)F)cc1)c1cc2ccccn2n1	99	102
91	O=C(Cn1cc(SCc2cccc(C(F)(F)F)c2)c2ccccc21)N1CCCCCC1	113	108
99	COc1cccc(-c2cc(C(F)(F)F)nc(NCCc3ccccc3)n2)c1	104	107

(further entries)
no.	Molecule	PV pol inh	PV pol inh intensity
101	COc1ccc(OC)c(CNc2ncc(-c3ccc(Cl)cc3)n2C)c1	100	100
102	CCCNS(=O)(=O)c1ccc2nc(NC(=O)c3ccc(F)cc3)sc2c1	103	101
103	Cc1cc(C)cc(NC(=O)c2sc3nc4n(c(=O)c3c2C)N=C(c2ccc(F)cc2)CS4)c1	106	93
104	CCC(=O)N1CCc2cc(Br)cc(S(=O)(=O)CCC(=O)Nc3ccc(C)c(F)c3)c21	103	103
105	COc1cccc(N2CCN(C(=O)C3CCN(S(=O)(=O)c4c(C)noc4C)CC3)CC2)c1	115	116
106	COc1ccc(-n2c(=O)c3sc4ccccc4c3n(CC(=O)Nc3ccccc3F)c2=O)cc1	104	107
107	COc1ccc(-c2cc(C(F)(F)F)nc(SCC(=O)N3CCCCC3C)n2)cc1OC (stereo not given)	107	108
108	COc1ccc(-n2nc3c(c2NC(=O)C(=O)N2CCN(C)CC2)CSC3)cc1	109	105
109	CC(=O)c1cccc(NC(=O)C2=CC(c3ccc4c(c3)OCO4)=NS(=O)(=O)N2C)c1	110	110
110	COc1ccc(NC(=O)Cn2nnc(C(=O)NCc3ccco3)c2N)c(OC)c1	110	107
111	CCOC(=O)c1sc2ccccc2c1S(=O)(=O)Nc1c(C)cccc1C	107	115
112	COc1ccc(OCC(=O)NCc2ccc3c(c2)CCN3C(=O)c2cccc(C)c2)cc1	107	107
113	CC1CCN(c2nc3ccccc3nc2SCC(=O)Nc2ccccc2C(C)C)CC1	106	108
